Screening data from PubChem.
ClpP mod – qHTS Assay for Activators of ClpP | purified B. subtilis ClpP, FRET peptide cleavage, 20 min | AID 651965, 2013 | hit rate 1.9% among 340,000 | ATP-dependent Clp protease proteolytic subunit (Bacillus subtilis (strain 168)), P80244 | Potency, µM (titrated, usually from 57.5 µM), without a hit: top-dose activity change, negative = active; active = well fitted falling curve with a large enough effect; inconclusive = small, poorly fitted or top-dose-only effect; inactive = no such curve, though single readings can be large or run the other way; also: potency is read from the fitted curve at half-maximal effect; the source files actives as falling curves though it sought activators and does not explain the sign; nearly all actives have a fitted effect of over 65% in size; many hits overshoot -100%
Target sequence (P80244 whole entry, looked up): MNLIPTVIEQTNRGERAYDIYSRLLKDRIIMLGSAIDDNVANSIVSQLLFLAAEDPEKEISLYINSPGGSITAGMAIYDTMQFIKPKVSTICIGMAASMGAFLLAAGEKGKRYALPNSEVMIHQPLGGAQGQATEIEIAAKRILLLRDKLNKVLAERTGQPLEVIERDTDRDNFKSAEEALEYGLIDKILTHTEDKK
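Purified B. subtilis ClpP, 10 microg/mL final in Tris/HCl pH8 with KCl, BSA, glycerol and Tween-20, cleaved an Abz/nitrotyrosine-quenched decapeptide. Fluorescence (ex 320, em 430) was read at 0 and 20 min at room temperature. Delta was normalized to 5.8 microM ADEP and DMSO/no-enzyme controls.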
TRPML1 inh – qHTS for Inhibitors of the Human Mucolipin Transient Receptor Potential 1 (TRPML1); Mucolipin-1 (Homo sapiens), Q9GZU1; hit rate 0.02% among 390,000; TRPML1-inducible cells, Ca2+ dye fluorescence, FDSS; stronger effect = lower value; inhibition of EC80 agonist-evoked calcium signal; AID 624415, 2012; activity change, negative = inhibition, % (no concentration beside the values); in the data active means activity change below about -50%; inconclusive means about -30% to -50%; inactive means above about -30%;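 also: stimulus is agonist 54-4 at its EC80 concentration; % is scaled to controls: 0 for no effect and ±100 for the full control effect; compound concentration not given in the record; the text of the record puts the active cut at -80%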
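Tet-induced TRPML1-DL cells loaded with Ca8 no-wash calcium dye were read kinetically on FDSS. Compound addition was followed by EC80 agonist 54-4 (4 uM final); inhibition was read over 110 s.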
gsp antagonist – qHTS for Antagonists of gsp, the Etiologic Mutation Responsible for Fibrous Dysplasia/McCune-Albright Syndrome: qHTS | gsp-mutant cells, cAMP HTRF, 30 min; control for the full effect not named in the record | Potency, µM (doses to about 76.9 µM), for the others: top-dose activity change, negative = inhibition, hits mostly inhibitors | hit rate 0.4% among 340,000 | AID 624288, 2012; active = falling curve of any shape with a large fitted effect; inconclusive = falling curve, mostly with a smaller effect; inactive = flat or rising curve; cell line not stated here;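 also: intracellular cAMP measured with PDE inhibitor Ro 20-1724 present during compound exposure; potency is read from the fitted curve at half-maximal effect; % is scaled to controls: 0 for no effect and ±100 for the full control effect; nearly all actives have a fitted effect of over 65% in size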
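G418-selected cells were plated in DMEM/10% FBS for 16-24 h at 37C, then treated with compounds plus the PDE inhibitor […] (300 uM solution added) for 30 min at 37C. Intracellular cAMP was measured by HTRF after 30 min lysis at room temperature.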
Menin-MLL FL inh – qHTS Assay for Inhibitors Targeting the Menin-MLL Interaction in MLL Related Leukemias: Competition With Fluorescein Labeled MLL-derived Peptide. FP activity change, % at 61.4 µM. AID 1766, 2009. 290,000 tested, under 10 active. Fluorescence polarization, fluorescein-MLL peptide displacement from menin; inconclusive = falling polarisation curve, or a change in total fluorescence; inactive = total fluorescence flat and polarisation flat or rising; no compound was filed as active; the % refers to the polarisation; negative = inhibition;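 also: % of control where 0% means no effect; inhibitors lower the polarisation; unlabelled MLL peptide was the positive control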
Sfp inh – qHTS Assay for Inhibitors of Bacillus subtilis Sfp phosphopantetheinyl transferase (PPTase); 4'-phosphopantetheinyl transferase ffp (Bacillus subtilis), Q9F4F7; Biochemical Sfp PPTase activity, qHTS; Potency, µM, for the others: max response, negative = inhibition, hits mostly inhibitors; hit rate 3.5% among 310,000; active = well fitted inhibition curve with a large enough effect; inconclusive = small, poorly fitted or top-dose-only effect, or another doubt; inactive = no such curve, though single readings can be large or run the other way;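 also: the enzyme is Sfp with the accession as filed and its product quenches rhodamine fluorescence; potency is read from the fitted curve at half-maximal effect; 0% = enzyme reaction without inhibitor and -100% = no enzyme wells; top concentration of the series not given in the record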
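Reaction rates are the 30-min fluorescence difference (ex 525, em 598 nm) in wells containing 15 nM Sfp, 5 uM rhodamine-CoA and 12.5 uM BHQ-2-YbbR at pH 7.6 with 10 mM MgCl2.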
gsp ag – qHTS for Agonist of gsp, the Etiologic Mutation Responsible for Fibrous Dysplasia/McCune-Albright Syndrome: qHTS | gsp mutant cells, cAMP HTRF, 30 min; control for the full effect not named in the record | Potency, µM (series often up to 76.9 µM), without a hit: at the top dose activation (cAMP increase), usual class: activators | hit rate 0.13% among 340,000 | AID 624287, 2012; active = well fitted activation curve with a large enough effect; inconclusive = small, poorly fitted or top-dose-only effect, or another doubt; inactive = no such curve, though single readings can be large or run the other way; cell line not stated here;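 also: phosphodiesterase inhibitor Ro 20-1724 added with compounds to block cAMP breakdown; potency is read from the fitted curve at half-maximal effect; nearly all actives have a fitted effect of over 60% in size; about a fifth of the inactives were tested at one dose only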
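Cells in DMEM/10% FBS with G418 were pretreated with compounds in DMSO plus […] (300 uM stock) for 30 min at 37C. cAMP was measured by HTRF (cAMP-d2 plus anti-cAMP antibody-K) after 30 min at room temperature.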
TRPV1 potentiator – HTS Assay for Compounds that Act as Potentiators of the Vanilloid Receptor 1; Transient receptor potential cation channel subfamily V member 1 (Homo sapiens), Q8NER1; TRPV1-expressing cells, Fluo-8 calcium influx, capsaicin EC20 potentiation; host cell line not named in the record; control for the full effect not named in the record; potentiation, % at 8.33 µM; hit rate 0.02% among 320,000; AID 540277, 2011; active means potentiation above 80%; inconclusive means 30% to 80%; inactive means below 30%; also: 0% is about no effect
Target sequence (Q8NER1 whole entry, looked up): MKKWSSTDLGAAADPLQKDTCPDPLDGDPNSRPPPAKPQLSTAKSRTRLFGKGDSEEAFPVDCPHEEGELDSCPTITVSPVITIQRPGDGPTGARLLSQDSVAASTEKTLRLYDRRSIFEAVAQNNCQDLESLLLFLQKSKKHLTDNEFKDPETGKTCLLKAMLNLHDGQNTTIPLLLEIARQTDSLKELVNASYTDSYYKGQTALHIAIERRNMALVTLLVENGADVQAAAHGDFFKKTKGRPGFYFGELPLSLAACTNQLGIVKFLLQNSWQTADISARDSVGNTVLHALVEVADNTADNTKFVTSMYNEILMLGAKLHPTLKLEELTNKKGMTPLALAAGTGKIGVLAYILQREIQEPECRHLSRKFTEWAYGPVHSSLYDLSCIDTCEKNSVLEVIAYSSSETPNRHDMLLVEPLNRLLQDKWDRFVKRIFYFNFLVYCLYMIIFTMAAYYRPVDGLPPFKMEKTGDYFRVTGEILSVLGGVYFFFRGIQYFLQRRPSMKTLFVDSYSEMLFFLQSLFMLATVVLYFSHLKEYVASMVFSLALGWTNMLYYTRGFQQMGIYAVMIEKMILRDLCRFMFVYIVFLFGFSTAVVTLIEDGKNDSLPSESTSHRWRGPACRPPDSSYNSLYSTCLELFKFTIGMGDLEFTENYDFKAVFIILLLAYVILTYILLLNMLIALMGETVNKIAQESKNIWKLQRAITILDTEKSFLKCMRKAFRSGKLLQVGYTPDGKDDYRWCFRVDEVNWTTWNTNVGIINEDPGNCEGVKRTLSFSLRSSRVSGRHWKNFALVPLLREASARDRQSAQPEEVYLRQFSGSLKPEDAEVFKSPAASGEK
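Fluo-8 calcium influx in TRPV1-expressing cells, kinetic read (ex 480/em 520 nm). Compound added and read 3 min for agonist activity, followed by capsaicin at EC20 final and 2 min further read for enhancement.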
An asterisk follows results filed as active; ? = inconclusive; · = not tested or not shown; [ ] = another dose, or the depositor's remark.

A first look, 3 compounds:
SMILES	ClpP mod	TRPML1 inh	gsp antagonist	Menin-MLL FL inh	Sfp inh	gsp ag	TRPV1 potentiator
O=C(c1ccc(-n2c(SCc3cccc(F)c3)nc3ccccc3c2=O)cc1)N1CCOCC1	1.3%	-2	-21%	7.6	-15%	-10%[15.4 µM]	-9
Cn1nnnc1SCCNCc1cccnc1	-1.3%	-14	17%	-0.7	8%	13%	0
COc1ccc(N2CC(C(=O)OCC(=O)NCc3ccccc3)CC2=O)cc1 (stereo not given)	1.5%	8	-2%	2.3	11%	-7%	-23

All compounds of this part (from the top)
SMILES	ClpP mod	TRPML1 inh	gsp antagonist	Menin-MLL FL inh	Sfp inh	gsp ag	TRPV1 potentiator
O=C(c1ccc(-n2c(SCc3cccc(F)c3)nc3ccccc3c2=O)cc1)N1CCOCC1	1.3%	-2	-21%	7.6	-15%	-10%[15.4 µM]	-9
Cn1nnnc1SCCNCc1cccnc1	-1.3%	-14	17%	-0.7	8%	13%	0
COc1ccc(N2CC(C(=O)OCC(=O)NCc3ccccc3)CC2=O)cc1 (stereo not given)	1.5%	8	-2%	2.3	11%	-7%	-23
c1ccc(C2NCCc3ccccc32)cc1 (stereo not given)	·	1	5%	3.5	4%	-3%[15.4 µM]	-15
O=C(COC(=O)/C=C/c1ccccc1[N+](=O)[O-])NCc1ccco1	·	10	-7%	·	·	?	·
O=C(CSc1n[nH]c(-c2cccs2)n1)NCc1cccs1	-9.9%	-8	12%	4.2	6%	-2%	3
Cc1cc(C)n2nc(SCc3cccc(S(=O)(=O)N(C)C)c3)nc2n1	0.4%	13	3%	-3.1	4%	-7%[15.4 µM]	10
O=C1CCC(C(=O)OCC(=O)N2N=C3/C(=C/c4ccccc4)CCCC3C2c2ccccc2)N1 (stereo not given)	-8.7%	6	-4%	-0.7	-24%	-10%	1
COc1ccc(CC(=O)NNC(=O)c2ccc(NC(C)=O)cc2)cc1	·	-11	3%	-4.2	14%	-14%[15.4 µM]	2
COc1ccc(N2CCN(C(=O)COC(=O)COc3cc(C)cc(C)c3)CC2)cc1	-2.9%	23	-23%	·	·	-5%[15.4 µM]	-14
C=CCc1cccc(/C=N/NC(=O)C(C)Nc2ccc(C)cc2)c1O (stereo not given)	-7.4%	-1	-18%	6.7	7%	7%	-5
O=C(NCCCN1CCOCC1)C(=O)N/N=C/c1ccc(F)cc1	-3.0%	0	10%	1.8	-8%	-13%	7
CC(C)N(C(=O)Cn1cc(S(=O)(=O)CC(=O)NCc2ccccc2)c2ccccc21)C(C)C	-1.8%	12	-10%	·	10%	26%	-10
COc1ccc(NC(=O)CSc2ccccc2)cc1S(=O)(=O)N1CCCCC1	0.7%	2	-7%	6.7	-1%	-1%	-6
CCNc1nc(N)nc(-c2cc(Cl)ccc2OC)n1	-5.3%	3	7%	1.1	16%	8%	-3
COc1cccc(-n2nnc3c(=O)n(Cc4cccc(C)c4)cnc32)c1	-3.5%	12	-13%	-0.8	-2%	7%	1
O=C(c1ccco1)N1CCN(C/C=C/c2ccccc2)CC1	-2.4%	-5	2%	-1.3	-3%	-39%[inhibitor]	-2
O=C(CCC1CCCN(C(=O)c2ccoc2)C1)NCc1ccc(F)c(F)c1 (stereo not given)	·	11	6%	3.4	18%	-10%	4
CC1(C)N=C(c2cccs2)C(C)(C)N1O	-1.2%	40	7%	-2.9	12%	-6%	-15
CCOc1cc(C)cc2oc(=O)cc(-c3ccccc3)c12	-1.3%	21	0%	-0.5	-9%	-43%[inhibitor]	-12
Cc1ccc(S(=O)(=O)N(CC(=O)N2CCOCC2)c2ccccc2F)cc1	·	20	11%	-4.1	24%	-4%	-15
Cc1cccc(NS(=O)(=O)c2ccc(C)c(C(=O)NCc3ccncc3)c2)c1	·	-6	1%	·	·	-10%[15.4 µM]	20
CCCOC(=O)c1ccc(NC(=O)c2ccoc2C)cc1	-0.3%	3	-13%	5.0	-14%	-2%	11
O=C(COC(=O)CCC(=O)c1cccs1)Nc1ccc(S(=O)(=O)N2CCOCC2)cc1	-0.1%	-9	12%	2.0	-1%	-2%	25
CCCCOC(=O)Nc1cc(Cl)ccc1C	-6.5%	5	-2%	-0.9	-10%	-37%[inhibitor]	23

Some of these compounds in order of heavy-atom count, smallest number first.
SMILES	ClpP mod	TRPML1 inh	gsp antagonist	Menin-MLL FL inh	Sfp inh	gsp ag	TRPV1 potentiator
CCCCOC(=O)Nc1cc(Cl)ccc1C	-6.5%	5	-2%	-0.9	-10%	-37%[inhibitor]	23
COc1ccc(CC(=O)NNC(=O)c2ccc(NC(C)=O)cc2)cc1	·	-11	3%	-4.2	14%	-14%[15.4 µM]	2
O=C(CCC1CCCN(C(=O)c2ccoc2)C1)NCc1ccc(F)c(F)c1 (stereo not given)	·	11	6%	3.4	18%	-10%	4

Next section.
SMILES	ClpP mod	TRPML1 inh	gsp antagonist	Menin-MLL FL inh	Sfp inh	gsp ag	TRPV1 potentiator
Cc1cccc(N2C(=O)c3ccc(Br)cc3C2=O)n1	·	·	·	-1.9	3%	·	10
COC(=O)C(NC(=O)CSc1nc(N)cc(=O)[nH]1)c1ccccc1 (stereo not given)	·	-1	9%	2.5	3%	-42%[inhibitor]	-7
COc1cc(C(C)=O)ccc1OCC(=O)Nc1ccc(C)c(S(=O)(=O)N2CCCCCC2)c1	-6.4%	3	32µM*	·	·	4%	16
O=C(NCc1ccc2c(c1)OCO2)C1CCN(S(=O)(=O)N2CCCCC2)CC1	1.1%	16	12%	1.4	7%	-3%[15.4 µM]	6
Nn1c(SCc2nc3ccccc3[nH]2)nnc1-c1ccccc1	-0.7%	1	11%	0.2	11%	5%	-8
Cc1ccc(CNC(=O)/C=C/c2cccs2)cc1	-1.5%	0	3%	3.8	7%	-6%	-25
Cc1ccc(-n2nc(C(=O)O)cc2-c2ccccc2Cl)cc1	·	11	4%	?	16%	19%	7
COc1ccc(NC(=O)CN(C)CC(=O)c2[nH]c(C)c(C(C)=O)c2C)cc1	2.4%	-2	-4%	·	·	8%	-20
Cc1ccc(NS(=O)(=O)c2c(C)noc2C)cc1	·	2	-12%	0.0	8%	-10%	-10
COc1cccc2c(=O)c3c([nH]c12)OC(C)(C)C3	·	-12	8%	·	·	-26%	·
Cc1ccc(O)c(N=Cc2cc(Cc3ccccc3)cc([N+](=O)[O-])c2O)c1	·	-3	?	?	8.9µM*	2%[15.4 µM]	10
Cc1cc(=O)oc2cc(OCC(=O)NC3CC(C)(C)NC(C)(C)C3)ccc12	3.7%	-3	13%	1.6	3%	-31%[inhibitor]	-12
CN1CCN(c2ccc([N+](=O)[O-])cc2C(=O)N2CCCCC2)CC1	2.5%	6	10%	2.4	23%	10%	1
O=C(Cc1cccc(NC(=O)C2CCN(C(=O)C3CCCCC3)CC2)c1)Nc1cccc(C(=O)N2CCCC2)c1	0.9%	89	1%	·	·	·	-6
CCOC(=O)c1ccc2c(c1)[n+](CC)c(C)n2-c1ccccc1	·	5	5%	-0.4	-6%	?	2
COc1ccc(Br)cc1-c1noc(-c2ccccc2)n1	1.2%	-8	-12%[15.4 µM]	2.4	-15%	-1%	-5
CCC(C)(C)n1nnnc1C(c1cccnc1)N1CCC(Cc2ccccc2)CC1 (stereo not given)	·	26	-18%	-3.5	18%	-21%[15.4 µM]	-9
Cc1nc(Cl)sc1C(=O)NC(C)c1ccc(Cl)cc1 (stereo not given)	1.5%	-1	5%	2.4	12%	-8%[15.4 µM]	-8
CSc1ccc(CN(C)CCc2ccccn2)cc1	-4.1%	·	-3%	-4.4	50µM*	7%	22
C=CCNC(=O)c1ccccc1NC(=O)Nc1ccccc1	-8.1%	12	-1%	3.8	8%	-26%	-16
COc1ccc(CCNc2cc(=O)[nH]c(N)n2)cc1	-0.1%	-8	3%	-0.1	-1%	-1%	-10
CN(C)c1cccc2c1C(=O)c1ccccc1C2=O	-1.1%	-12	-9%	6.3	-10%	?	-4
CC(C)c1cc(C(F)(F)F)n2nc(C(=O)Nc3ccc4c(c3)OCO4)cc2n1	0.6%	9	8%	0.9	5%	-24%	-12
COc1ccccc1CCN=C(N)NS(=O)(=O)c1ccccc1	0.2%	5	5%	-2.4	16%	?	9
O=C(c1ccc2c(Cl)c3c(nc2c1)CCCC3)N1CCN(c2ccc(F)cc2)CC1	-3.5%	39	?	3.2	-13%	-38%[inhibitor]	8
SMILES	ClpP mod	TRPML1 inh	gsp antagonist	Menin-MLL FL inh	Sfp inh	gsp ag	TRPV1 potentiator
Cc1ccc(S(=O)(=O)N2CCCOC2CNC(=O)C(=O)NCCC2=CCCCC2)cc1 (stereo not given)	-2.1%	13	-6%	6.4	-1%	-20%	11
CC1CN(S(=O)(=O)c2cccc(C(=O)OC(C)C(=O)NC3CCCCC3C)c2)CC(C)O1 (stereo not given)	0.3%	5	-5%	·	6%	-10%[15.4 µM]	-5
CC(CN1CCC(n2nccc2NC(=O)CCCc2ccccc2)CC1)c1ccccc1 (stereo not given)	-0.7%	2	3%	·	6%	?	-5
O=C(Nc1ccc2oc(=O)ccc2c1)c1ccc(-c2ccccc2[N+](=O)[O-])o1	·	-1	13%	3.4	-22%	8%[15.4 µM]	-1
CCN(CC)C(=O)c1ccc(C)c(Br)c1	-3.0%	9	0%	-0.7	-1%	-16%	0
NC(=O)CC[C@H](NC(=O)c1ccc(F)cc1)C(=O)OCC(=O)NCc1ccc2c(c1)OCO2	0.6%	-12	-8%	·	·	-49%[inhibitor]	·
COc1cccc(Nc2c(F)c(OC)c(F)c(F)c2C(=O)O)c1	4.6%	9	6%	2.0	1%	14%	-3
